Assay outcomes: PubChem, National Center for Advancing Translational Sciences (NCATS)
gsp agonist = activates gsp, the McCune-Albright syndrome mutation. gsp mutant cells, cAMP HTRF, 30 min; control for the full effect not named in the record. hit rate 0.13% among 340,000. AID 624287. Potency, µM (titrated, usually from 76.9 µM), for inactives: top-dose activation (cAMP increase), usual class: activators; active = well fitted activation curve with a large enough effect; inconclusive = small, poorly fitted or top-dose-only effect, or another doubt; inactive = no such curve, though single readings can be large or run the other way; cell line not stated here;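 note: phosphodiesterase inhibitor Ro 20-1724 added with compounds to block cAMP breakdown; potency is the fitted concentration of half-maximal effect; nearly all actives have a fitted effect of over 60% in size; about a fifth of the inactives were tested at one dose only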
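Cells in DMEM/10% FBS with G418 were pretreated with compounds in DMSO plus […] (300 uM stock) for 30 min at 37C. cAMP was measured by HTRF (cAMP-d2 plus anti-cAMP antibody-K) after 30 min at room temperature.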
gsp antag = antagonizes gsp, the McCune-Albright syndrome mutation. Potency, µM (highest dose often 76.9 µM), for inactives: at the top dose activity change, negative = inhibition, actives largely listed as inhibitors. hit rate 0.4% among 340,000. gsp-mutant cells, cAMP HTRF, 30 min; control for the full effect not named in the record; active = falling curve of any shape with a large fitted effect; inconclusive = falling curve, mostly with a smaller effect; inactive = flat or rising curve; cell line not stated here;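 note: intracellular cAMP measured with PDE inhibitor Ro 20-1724 present during compound exposure; potency is the fitted concentration of half-maximal effect; % is set by controls: 0 for no effect and ±100 for the full control effect; nearly all actives have a fitted effect of over 65% in size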
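HTRF cAMP read-out (cAMP-d2 plus anti-cAMP antibody-K in lysis buffer, 30 min RT). Before lysis, cells are exposed to compounds with […] for 30 min at 37C in DPBS containing Ca/Mg, BSA and Tween 20.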
D2 potentiator = positive allosteric modulators of human D2 dopamine receptor; P14416; DiscoveRx D2 beta-arrestin cells, luminescence, 90 min; 100% = 57 uM dopamine signal; potentiation, % (no concentration beside the values); hit rate 0.23% among 360,000; AID 624464; active = potentiation of 50% or more; inconclusive = 30% to 50%; inactive = 30% or less;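 note: compound concentration not given in the record; tested on top of an EC20 dose of dopamine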
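PathHunter D2 cells, attached overnight at 37 deg C, received compound in DMSO plus dopamine at EC20 (50 nM final) for 90 min at 37 deg C. Beta-arrestin recruitment was read as luminescence after 1 h with detection reagent at ambient temperature.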
CtBP-E1A blk = inhibitors of CtBP/E1A interaction; AlphaScreen GST-E1A/His-CtBP binding, 1536-well; hits give low values; control for the full effect not named in the record; activity change, % (no concentration beside the values); hit rate 0.49% among 340,000; AID 651724; in the data active means activity change below about -65%; inconclusive means about -30% to -65%; inactive means above about -30%; note: % is set by controls: 0 for no effect and ±100 for the full control effect; compound concentration not given in the record
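Steps: dispense buffer (Tris pH 8.0, NaCl 300 mM, TCEP 1 mM, BSA, Tween 20); add 5X protein mix (GST-E1A, His-CtBP, 125 nM each); pin 23 nL compound; 2 h at 37 °C, dark; add 5X beads (50 ug/mL); 1 h; read.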
Six1-Eya2 inh = blocks human Six1 binding to Eya2; AlphaScreen GST-Six1/His-Eya2 binding, biochemical; hits give low values; control for the full effect not named in the record; hit rate 0.56% among 360,000; activity change, % (test concentration not listed); AID 651725; in the data active = activity change below about -65%; inconclusive = about -30% to -65%; inactive = above about -30%; note: % is set by controls: 0 for no effect and ±100 for the full control effect; compound concentration not given in the record
Target sequence (O00167 whole entry, looked up): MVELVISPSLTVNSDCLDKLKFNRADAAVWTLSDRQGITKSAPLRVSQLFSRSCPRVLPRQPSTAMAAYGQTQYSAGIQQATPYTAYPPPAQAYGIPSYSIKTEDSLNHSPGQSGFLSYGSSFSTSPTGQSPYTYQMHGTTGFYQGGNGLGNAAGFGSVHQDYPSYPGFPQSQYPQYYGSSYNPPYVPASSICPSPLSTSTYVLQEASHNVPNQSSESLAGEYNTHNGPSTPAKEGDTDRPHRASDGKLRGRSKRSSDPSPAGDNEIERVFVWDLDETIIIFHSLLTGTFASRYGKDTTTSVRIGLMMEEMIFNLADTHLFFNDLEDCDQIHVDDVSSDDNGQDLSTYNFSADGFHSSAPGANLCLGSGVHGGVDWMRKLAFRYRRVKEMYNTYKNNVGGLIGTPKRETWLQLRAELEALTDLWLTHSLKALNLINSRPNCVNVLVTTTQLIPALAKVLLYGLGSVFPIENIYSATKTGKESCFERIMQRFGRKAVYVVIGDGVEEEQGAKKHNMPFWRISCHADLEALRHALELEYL
Target sequence (Q15475 whole entry, looked up): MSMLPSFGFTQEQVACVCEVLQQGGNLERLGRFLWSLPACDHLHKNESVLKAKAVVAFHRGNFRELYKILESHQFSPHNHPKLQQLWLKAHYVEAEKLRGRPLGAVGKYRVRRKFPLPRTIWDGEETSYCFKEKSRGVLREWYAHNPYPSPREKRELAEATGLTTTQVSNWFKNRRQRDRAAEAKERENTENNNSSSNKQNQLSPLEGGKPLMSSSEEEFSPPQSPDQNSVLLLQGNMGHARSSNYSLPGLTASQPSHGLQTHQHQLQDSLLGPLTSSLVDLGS
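Six1/Eya2 binding was read as AlphaScreen signal after compounds were pinned into GST-Six1 plus His-tagged Eya2 (5X stock 250/500 nM) in pH 8.0 Tris/NaCl/TCEP buffer, beads added, then incubated 1 h, 37 C, dark.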
D2 ag = agonists of human D2 dopamine receptor (beta-arrestin). P14416. DiscoveRx PathHunter D2 beta-arrestin, luminescence, 90 min; 100% = 57 uM dopamine signal. activation, % (concentration not given with the values). hit rate 0.084% among 360,000; in the data active = activation above about 40%; inconclusive = about 15% to 40%; inactive = below about 15%; note: compound concentration not given in the record; the text of the record calls up to 30% inactive
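Agonist mode: compounds alone added to overnight-plated D2 PathHunter cells for 90 min at 37 C, with 57 uM final dopamine (EC100) defining full response. Beta-arrestin recruitment detected by chemiluminescent reagent, read after 1 h at ambient temperature.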
* = called active by the depositor; ? = inconclusive; . = not tested or not shown; [ ] = dose if it differs, or a comment.

Below each compound: gsp agonist | gsp antag | D2 potentiator | CtBP-E1A blk | Six1-Eya2 inh | D2 ag
CCCCCCc1ccc(N2C[C@H](Cc3ccccc3)[C@@H](CC(=O)NCc3ccc(OC)cc3)C2=O)cc1
→ . | 6% | -39 | -15 | -12 | -2.8
CCOc1ccc(NC(=O)CCNS(=O)(=O)c2ccc(Br)s2)cc1
→ -22% | 0% | 7 | -15 | -9 | 0.1
Cc1ccc(C)c(S(=O)(=O)Nc2ccc(S(=O)(=O)Nc3onc(C)c3C)cc2)c1
→ ? | 8% | -5 | 4 | 0 | -9.1
CCN(CC)C(=S)SCC(=O)Nc1nc(=O)c2ccccc2s1
→ ? | 0% | -1 | 0 | -12 | -1.8
Cc1cc(S(=O)(=O)NC[C@H]2O[C@@H](n3cnc4c(N)ncnc43)[C@H](O)[C@@H]2O)c(C)s1
→ . | 1% | 0 | -8 | 0 | -5.8
CC1C/C(=C\c2cccnc2)C(=O)/C(=C/c2cccnc2)C1 (stereo not drawn)
→ ? | 3% | -9 | 11 | -15 | -6.1
O=C(CNC(=O)c1cccs1)OCC(=O)c1ccccc1Cl
→ -1%[15.4 µM] | -5% | -10 | -3 | 0 | -9.5
O=C(Cn1c(=O)n(-c2ccccc2)c(=O)c2sccc21)N1CCCC1
→ ? | -5% | -4 | 3 | -1 | -5.5
O=C1C=C(N2CCCCC2)c2ccccc2C1=O
→ 21%[15.4 µM] | -30% | ? | 8 | 69 | ?
COc1cccc2sc3cc(NCCCN4CCOCC4)ccc3c(=O)c12
→ 2% | 18% | -10 | -12 | -13 | 7.8
Cc1ccc(NC(=O)c2ccccc2)cc1C
→ . | 0% | -8 | 9 | 2 | -6.7
COC(=O)C1=C(NC(=O)COc2ccc(Cl)cc2Cl)CCS1
→ 19% | 15% | -2 | -3 | 2 | -1.4
COc1ccccc1COCC(O)CNCCc1ccc(C(F)(F)F)cc1 (stereo not drawn)
→ -3% | 18% | -22 | 0 | -23 | -4.6
COc1ccc(C(=O)Nc2cc(Cl)ccc2-n2cncn2)c(OC)c1OC
→ -5% | -21% | 0 | 1 | 4 | 1.7
COC(=O)c1sccc1NC(=O)c1c(Cl)cnn1C
→ 27% | 17% | -8 | 3 | 2 | 1.7
CCOc1cccc(N2C(=O)CC(NCc3ccc(S(N)(=O)=O)cc3)C2=O)c1 (stereo not drawn)
→ -7% | 7% | -5 | -1 | -1 | -3.0
Cc1ccc(C)c(S(=O)(=O)NCC(=O)Nc2ccc3c(c2)OCO3)c1
→ 8% | 1% | -2 | -8 | 3 | -0.5
CCOC(=O)c1c(CS(=O)(=O)c2ccccc2)n(C)c2cc(Br)c(O)c(CN(C)C)c12
→ ? | -16% | 8 | -21 | -5 | 1.6
COc1cc2cc(CCOC(=O)N3CCCCC3)oc(=O)c2cc1OC
→ . | 2% | -8 | -2 | -5 | -3.2
O=C(Nc1ccc(N2CCCC2)cc1)c1ccccc1F
→ 0% | -11% | 3 | ? | -24 | 0.1
CN(C)CC(O)CN(c1ccccc1)c1ccccc1 (stereo not drawn)
→ 17%[15.4 µM] | 3% | -6 | 36 | 17 | 3.1
COc1ccc(OC)c(S(=O)(=O)Nc2cccnc2)c1
→ ? | 3% | 7 | 5 | 5 | -0.1
CNc1cc(-c2cc(OC)ccc2OC)ncn1
→ . | . | -7 | -3 | -4 | -4.0
Cc1csc(=O)n1CC(=O)OCC(=O)N(CC(C)C)c1c(N)n(Cc2ccccc2)c(=O)[nH]c1=O
→ -17%[15.4 µM] | 2% | 8 | 3 | -1 | -1.6
COc1ccc(CN(CC(=O)NCc2ccc(F)cc2)C(=O)CCC(=O)Nc2ccccn2)cc1
→ -17%[15.4 µM] | -13% | -6 | -2 | -8 | -0.5
CN(c1ccccc1)c1nc(N)c([N+](=O)[O-])c(NC2CCCCC2)n1
→ -54%[inhibitor] | 50µM* | -4 | -3 | -10 | 1.3
Cc1nnc2ccc(-c3ccc(NC(=O)Cc4cccs4)cc3)nn12
→ -3%[15.4 µM] | -7% | 2 | -26 | -3 | 4.1
Cc1oc(-c2ccc3c(c2)OCCO3)cc1C(=O)NC(Cc1ccccc1)C(=O)O (stereo not drawn)
→ -7%[15.4 µM] | 9% | 2 | -10 | 7 | -4.1
Cc1nn(C(C)C(=O)O)c(=O)c2ccccc12 (stereo not drawn)
→ ? | 8% | -3 | 8 | 9 | -1.6
CC(=O)Oc1ccc2c(C)c(CC(C)O)c(=O)oc2c1 (stereo not drawn)
→ ? | -8% | -18 | 0 | 2 | 0.0
CCOC(=O)c1c(CN(C)C)n(-c2ccc(C)cc2)c2cc(Br)c(O)cc12
→ -19% | -6% | -25 | -1 | -17 | -4.2
COc1ccc(S(=O)(=O)N2CCCC(C(=O)NCCc3ccccc3)C2)cc1 (stereo not drawn)
→ 14%[15.4 µM] | 3% | -9 | 23 | 10 | -2.4
O=C(N/N=C/C=C/c1ccccc1[N+](=O)[O-])c1cc(-c2cccnc2)nc2ccccc12
→ -19% | ? | -3 | . | -5 | 5.4
CCCC(=O)NCCCc1nc2ccccc2n1C
→ 11% | 7% | -6 | 2 | 2 | -2.2
CCOC(=O)N1CCC(N(CCN(C)C)C(=S)Nc2cccc(C)c2)CC1
→ -1% | 1% | -11 | -1 | -3 | 0.8
COc1cc(NC(=O)C2CC(c3ccccc3Cl)=NO2)cc(OC)c1OC (stereo not drawn)
→ -70% | -18% | -3 | 6 | -4 | -2.6
O=C1COc2ccc(C(=O)CSc3ccccc3C(=O)O)cc2N1
→ -28% | 7% | -4 | 1 | 0 | -2.8
CC1CC1C(=O)OCC(=O)NC(=O)NC12CC3CC(CC(C3)C1)C2 (stereo not drawn)
→ 16%[15.4 µM] | 0% | -3 | 1 | 13 | -7.1
O=C(COC(=O)c1ccc[nH]c1=O)NC1CCCC1
→ 2% | 2% | -5 | -1 | 10 | 0.1
O=C(NCCc1ccccc1)c1c(O)c2ccccc2[nH]c1=O
→ -12% | 22% | 1 | 6 | 1 | 0.4
COc1ccc(NS(=O)(=O)c2ccc(C)c(C(=O)N(C)Cc3ccc(OC)cc3OC)c2)cc1
→ -4% | ? | -15 | -3 | -6 | 2.4
CC1=C(C(=O)Nc2ccccc2)C(c2ccco2)C(C#N)=C(SCC(=O)Nc2cccc(C)c2C)N1 (stereo not drawn)
→ -4% | -10% | -8 | -2 | -6 | 0.6
O=C(/C=C/Nc1ccc([N+](=O)[O-])cc1Br)c1cccc2ccccc12
→ -14% | 8% | 12 | -1 | 4 | -2.4
Cc1ccc(CNC(=O)C(=O)c2cn(CC(=O)N3CCOCC3)c3ccccc23)cc1
→ 24% | -3% | -2 | -5 | 1 | -0.6
CCCOC(=O)C(C)n1cnc2scc(-c3ccc(C)cc3)c2c1=O (stereo not drawn)
→ -156% | -16% | -17 | . | -13 | 4.5

An excerpt from above in order of the D2 potentiator value, descending.
Below each compound: gsp agonist | gsp antag | D2 potentiator | CtBP-E1A blk | Six1-Eya2 inh | D2 ag
CCOc1ccc(NC(=O)CCNS(=O)(=O)c2ccc(Br)s2)cc1
→ -22% | 0% | 7 | -15 | -9 | 0.1
Cc1ccc(C)c(S(=O)(=O)NCC(=O)Nc2ccc3c(c2)OCO3)c1
→ 8% | 1% | -2 | -8 | 3 | -0.5
O=C(N/N=C/C=C/c1ccccc1[N+](=O)[O-])c1cc(-c2cccnc2)nc2ccccc12
→ -19% | ? | -3 | . | -5 | 5.4
CCCC(=O)NCCCc1nc2ccccc2n1C
→ 11% | 7% | -6 | 2 | 2 | -2.2
COc1cccc2sc3cc(NCCCN4CCOCC4)ccc3c(=O)c12
→ 2% | 18% | -10 | -12 | -13 | 7.8
CC(=O)Oc1ccc2c(C)c(CC(C)O)c(=O)oc2c1 (stereo not drawn)
→ ? | -8% | -18 | 0 | 2 | 0.0

(listing goes on)
Below each compound: gsp agonist | gsp antag | D2 potentiator | CtBP-E1A blk | Six1-Eya2 inh | D2 ag
CN(C)CCNC(=O)c1cc2sc3ccccc3c2s1
→ 7%[15.4 µM] | . | -23 | -11 | 9 | -3.6
CCNC(=O)C1(C)CCN(C(=O)C(c2ccccc2)c2ccccc2)C1 (stereo not drawn)
→ . | . | -2 | 3 | 0 | 2.3
Cc1ccc(S(=O)(=O)N2CCC(=O)N(CCOC(=O)Nc3ccc(F)cc3)CC2)cc1
→ . | -11% | -14 | -2 | 4 | 0.7
Cc1ccc(C(C)NC(=O)CSc2ccc(S(=O)(=O)N3CCOCC3)cn2)cc1C (stereo not drawn)
→ ? | -6% | -17 | 0 | 20 | 1.5
Cc1c(-c2nc(-c3ccncc3)no2)cccc1[N+](=O)[O-]
→ -47%[inhibitor] | 3% | -10 | -19 | -9 | -4.5
CCc1ccccc1NC(=O)CN1CCN(CC(=O)Nc2ccc3c(c2)OC2(CCCCC2)O3)CC1
→ 23% | -1% | -7 | 0 | -5 | -2.9
Cc1cc(Cl)ccc1C(=O)C1CCCN(C(=O)c2cnsn2)C1 (stereo not drawn)
→ -41%[inhibitor] | -5% | -6 | . | 5 | -2.6
O=C1C(C23CC4CC(CC(C4)C2)C3)C(=O)N(c2ccccc2)N1c1ccccc1
→ 23% | -1% | 5 | -4 | 3 | 0.9
Cc1cccc2c(N)c3c(nc12)N(C)CC3
→ 32% | -8% | -10 | . | -1 | 3.7
COc1cc(C(C[N+](=O)[O-])c2c(C)[nH]c3ccccc23)ccc1O (stereo not drawn)
→ 8%[15.4 µM] | -10% | 6 | -17 | -13 | 1.0
COc1ccc(-c2cc(C(=O)NCC(C)C)no2)cc1
→ 14% | 11% | -13 | -10 | -10 | -0.8
O=C(Cc1ccccc1)Nc1ccc(NC(=S)NC(=O)c2ccccc2)cc1
→ ? | 1% | 15 | 2 | 0 | -0.8
CCOC(=O)c1ccoc1CN1CCN(S(=O)(=O)c2ccc(C)c(C)c2)CC1
→ 0%[15.4 µM] | -17% | -1 | -2 | -12 | -0.9
